Rango dissoc inh – qHTS Assay for Inhibitors of RanGTP induced Rango (Ran-regulated importin-beta cargo) - Importin beta complex dissociation. AID 540253, 2011. Biochemical FRET Rango-importin beta, RanGTP-induced dissociation. 340,000 compounds, 0.071% hits. Snurportin-1 (Homo sapiens) + GTP-binding nuclear protein Ran (Homo sapiens) + Importin …. Potency, µM (doses to about 46.1 µM), inactives show top-dose activity change, negative = inhibition; active means falling FRET ratio curve, often poorly fitted, with flat reads before Ran was added; inconclusive means other falling curves, or compound fluorescence or quenching; inactive means flat or rising ratio curve;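 also: potency is read from the fitted curve at half-maximal effect; % of control where 0% means no effect; nearly all actives have a fitted effect of over 45% in size; -100% = wells without RanGTP and RCC1; the record marks most hits as doubtful in a second field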
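FRET read at 45 min, room temperature: inhibitors block the CFP/YFP signal rise when RanGTP (0.6 uM Ran, 2 mM GTP, 0.2 uM RCC1) frees Rango (0.1 uM) from importin beta (0.25 uM). Pre-read after 5 min compound exposure flags interference.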
Rango-impB inh – qHTS Assay for Inhibitors of Rango (Ran-regulated importin-beta cargo) - Importin beta complex formation | Importin subunit beta-1 (Homo sapiens), Q14974 | Rango CFP/YFP FRET sensor + importin beta, 45 min | Potency, µM (doses to about 92.2 µM), inactives show at the top dose inhibition of complex formation | 340,000 compounds, 0.031% hits; active = rising FRET ratio curve, often small or poorly fitted; inconclusive = mostly compound fluorescence or quenching in the first reads; inactive = flat curves in all reads;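 also: potency is read from the fitted curve at half-maximal effect; 0% = DMSO wells and 100% = buffer wells lacking importin beta; nearly all actives have a fitted effect of over 15% in size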
Target sequence (Q14974 whole entry, looked up): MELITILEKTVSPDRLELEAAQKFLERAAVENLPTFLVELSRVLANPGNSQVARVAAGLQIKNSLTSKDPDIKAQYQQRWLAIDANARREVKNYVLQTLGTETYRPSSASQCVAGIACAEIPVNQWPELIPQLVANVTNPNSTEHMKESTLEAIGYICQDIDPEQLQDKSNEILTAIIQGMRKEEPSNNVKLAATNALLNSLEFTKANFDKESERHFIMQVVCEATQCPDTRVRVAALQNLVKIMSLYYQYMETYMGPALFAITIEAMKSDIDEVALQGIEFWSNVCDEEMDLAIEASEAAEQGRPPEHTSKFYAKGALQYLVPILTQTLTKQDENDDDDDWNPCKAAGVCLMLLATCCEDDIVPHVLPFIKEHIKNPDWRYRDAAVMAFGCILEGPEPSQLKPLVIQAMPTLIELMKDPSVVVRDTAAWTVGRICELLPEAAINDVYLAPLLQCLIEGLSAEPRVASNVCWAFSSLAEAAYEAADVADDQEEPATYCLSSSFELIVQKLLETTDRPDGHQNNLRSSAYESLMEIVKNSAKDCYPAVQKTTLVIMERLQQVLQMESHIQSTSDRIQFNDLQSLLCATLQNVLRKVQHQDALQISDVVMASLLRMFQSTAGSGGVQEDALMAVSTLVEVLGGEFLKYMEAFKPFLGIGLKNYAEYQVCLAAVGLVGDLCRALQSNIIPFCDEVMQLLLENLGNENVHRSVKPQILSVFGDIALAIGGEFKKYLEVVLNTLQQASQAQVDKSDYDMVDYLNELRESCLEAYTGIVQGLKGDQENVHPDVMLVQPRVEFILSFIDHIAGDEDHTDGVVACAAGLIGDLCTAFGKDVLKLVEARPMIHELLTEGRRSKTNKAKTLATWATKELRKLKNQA
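FRET biosensor Rango (snurportin 1 IBB between N-terminal EYFP and C-terminal Cerulean), 50 nM in PBS/1 mM DTT/0.02% Tween-20/0.1% BSA, preincubated 5 min RT with compound; 0.125 microM importin beta added, 45 min RT, CFP/YFP FRET ratio read.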
GLA inh pH 4.5 – qHTS Assay for Inhibitors of Human alpha-Galactosidase at pH 4.5; purified enzyme, 4-MU-alpha-Gal fluorescence, pH 4.5; activity change, negative = inhibition, % at 105 µM; 230,000 tested, under 10 active; AID 1467, 2008; inconclusive = small, poorly fitted or top-dose-only inhibition, or a rising curve; inactive = flat fitted curve, though single readings scatter; no compound was filed as active;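 also: 0% = full activity with enzyme and -100% = basal without enzyme; dose as in the result columns while the protocol names 77 µM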
miR-21 reporter – qHTS Assay for Modulators of miRNAs and/orActivators of miR-21. AID 2288, 2010. HeLa miR-21 FLuc reporter, luciferase, 48 h. Potency, µM (series often up to 38.3 µM), without a hit: top-dose reporter change, positive = more light. 340,000 tested, under 10 active; active = well fitted rising curve with a large enough effect; inconclusive = small, poorly fitted or top-dose-only effect; inactive = no such curve, though single readings can be large or run the other way;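 also: % of control where 0% means no effect; miR-21 action dims this reporter so a rising signal means less miR-21 action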
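HeLa cells stably expressing CMV-driven firefly luciferase with a downstream miR-21 binding sequence, endogenously expressing miR-21, were treated with titrations (up to about 40uM final) for 48 hours at 37 degree Celsius. Luciferase luminescence was read after lysis.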
Active calls of the source: *; u = inconclusive; x = no result given; & = joins results of further samples. An excerpt; rates above refer to the full screens.

SMILES | Rango dissoc inh | Rango-impB inh | GLA inh pH 4.5 | miR-21 reporter
Cc1cccc(NC(=O)CN2CCN(CC(=O)Nc3cccc(C)c3)CC2)c1 | 1% | -6.1% | -6 | 0%
O=C(NC1CCN(C(=O)N2c3ccccc3Sc3ccccc32)CC1)c1ccccc1F | 14% | 2.1% | -3 | 17%
COC(=O)C1=C(C)NC(C)=C(C(=O)OC)C1c1ccc(-c2cccc([N+](=O)[O-])c2)o1 | 11% | -3.0% | -11 | -14%
O=S(=O)(c1cccc2nonc12)N1CCN(c2ccc(F)cc2)CC1 | -14% | 0.5% | -4 | -29%
O=C(NS(=O)(=O)Nc1ccccc1)C1=C(N2CCCC2)COC1=O | 2% | -1.0% | x | x
Nc1nc(SCC(=O)NCc2ccc3c(c2)OCO3)n[nH]1 | -14% | 1.7% | 1 | 0%
O=C(c1ccccc1O)N1CCOCC1 | 0% | -0.4% | -15 | -2%
CCN(CC)C(=O)Cn1c(=O)oc2ccccc21 | -2% | -0.4% | -1 | 0%
CCOC(=O)C1CCN(CCC(=O)Nc2ccc(Br)c(C)c2)CC1 | -6% | -1.9% | x | 2%&10%
O=C(COC(=O)C1CCN(c2ccc(C(F)(F)F)cn2)CC1)NCc1ccc(F)cc1 | -4% | 2.1% | x | x
CCc1nnc(NC(=O)c2ccc(Cl)c(S(=O)(=O)N3CCc4ccccc4C3)c2)s1 | 11% | -2.4% | 4 | -2%
CC(OC(=O)c1nsc(Cl)c1Cl)C(=O)NCc1ccco1 (stereo unspecified) | 2% | 1.9% | -2 | -3%
CC(=O)Nc1cccc(-c2csc(Nc3ccccn3)n2)c1 | -9% | -1.0% | -8 | 2%
COc1ccc(OC)c2nc(-c3ccc4c(c3)OCO4)ccc12 | -5% | -3.6% | x | -79%
CCc1ccc(C(=O)N/N=C/c2ccc(Cl)cc2Cl)nc1 | x | x | 5 | -46%
CCOC(=O)c1ccc(S(=O)(=O)NNC(=O)COc2ccc(C)cc2)cc1 | 8% | 2.1% | -1 | 0%
O=C(CCc1ccccc1)N1CCN(CCO)CC1 | 18% | -0.8% | -1 | -1%
Nc1c(-c2ccc(Cl)cc2)nnn1-c1ccccc1 | -1% | 0.0% | -1 | -72%
CCOc1ccc(/C=C/C(=O)OCC(=O)Nc2cccc(S(=O)(=O)N3CCCC3)c2)cc1 | -12% | -0.8% | x | x
O=C(CSc1ccc(Cl)cc1)Nc1cccc(-c2nc3ncccc3o2)c1 | 0% | 2.0% | -17 | u
CCOC(=O)c1ccc(-n2c(CN3CCC(O)CC3)nc3ccc([N+](=O)[O-])cc3c2=O)cc1 | -4% | 0.1% | 2 | -3%
COc1ccc(/C=N/NC(=O)c2ccc(N(C)S(=O)(=O)c3ccccc3)cc2)c(OC)c1 | -10% | 3.8% | -1 | -2%
COc1cccc(CNc2ccc(C(=O)O)cc2)c1OCc1ccccc1 | 1% | -2.1% | 1 | -12%
O=C(CNC(=S)NC(=O)c1ccc(F)cc1)c1ccccc1 | -13% | -0.3% | -11 | -8%
COC(=O)CC1C(=O)NCCN1C(=O)c1ccc(S(=O)(=O)N2CCOCC2)cc1 (stereo unspecified) | 18% | 1.1% | -7 | 0%
O=C(Nc1ccc(Cl)cc1)c1ccc2c(c1)S(=O)(=O)c1ccccc1C2=O | 6% | -3.1% | x | x
COc1ccccc1NS(=O)(=O)c1cccc(C(=O)NCC2(N3CCCCC3)CCCCC2)c1 | -1% | -1.8% | x | x
CC(N1CCOC1=O)S(=O)(=O)c1ccccc1 (stereo unspecified) | u | u | 12 | 0%
CCn1cc(C(=O)NCCc2ccccc2)c(=O)c2cc(S(=O)(=O)N3CCCC3)ccc21 | -1% | -0.7% | -8 | -7%
O=C(O)Cc1csc(NC(=O)c2ccco2)n1 | -5% | -6.0% | -5 | -15%

Fetched by structure from the entries so far (5):
SMILES | Rango dissoc inh | Rango-impB inh | GLA inh pH 4.5 | miR-21 reporter
COC(=O)CC1C(=O)NCCN1C(=O)c1ccc(S(=O)(=O)N2CCOCC2)cc1 (stereo unspecified) | 18% | 1.1% | -7 | 0%
COc1ccccc1NS(=O)(=O)c1cccc(C(=O)NCC2(N3CCCCC3)CCCCC2)c1 | -1% | -1.8% | x | x
O=C(O)Cc1csc(NC(=O)c2ccco2)n1 | -5% | -6.0% | -5 | -15%
O=C(CNC(=S)NC(=O)c1ccc(F)cc1)c1ccccc1 | -13% | -0.3% | -11 | -8%
CCOc1ccc(/C=C/C(=O)OCC(=O)Nc2cccc(S(=O)(=O)N3CCCC3)c2)cc1 | -12% | -0.8% | x | x

Going on with the list:
SMILES | Rango dissoc inh | Rango-impB inh | GLA inh pH 4.5 | miR-21 reporter
CC(C)C1NC2(C(=O)c3ccccc3C2=O)C2C(=O)N(c3ccc(F)cc3)C(=O)C12 (stereo unspecified) | u | u | -6 | 0%
CC(C)OCCCNC(=O)C1CC(=O)N(CCc2ccccc2)C1 (stereo unspecified) | -10% | u | x | 1%
CN(Cc1ccccc1)/C(=N/O)c1cccc(Cl)c1 | -11% | -3.6% | x | -9%
COc1cccc2nc3cc(C)c(C)cc3nc12 | u | u | 1 | 5%
COc1cccc(C2=NN(C(=O)c3ccco3)C(O)(C(F)(F)F)C2)c1 (stereo unspecified) | -7% | 5.8% | 2 | 0%
COCCN1C(=O)/C(=C2/C(=O)N(CC(=O)Nc3ccccc3Cl)c3ccccc32)SC1=S | 6% | -0.5% | x | 0%
CS(=O)(=O)NCCNc1cc(Cl)ccc1[N+](=O)[O-] | 8% | 2.9% | -3 | -8%
O=C(CNC(=O)c1ccc(Br)o1)NC1CCCCC1 | 29% | -1.1% | x | -7%
Cc1nnc(SCCCn2c(N3CCN(c4ccccc4)CC3)nc3c2c(=O)[nH]c(=O)n3C)s1 | -4% | -0.1% | 2 | 4%
Nc1cc(N)nc(SCC(=O)NNC(=O)c2ccc(Cl)cc2)n1 | 9% | 1.4% | -4 | -1%
Oc1ccc(N=Nc2ccc3c(c2)OCCO3)c2ncccc12 | 2% | -3.7% | -24 | 8%
CC(C)CN(CCNC(=O)CN1C(=O)COc2ccc(S(=O)(=O)N3CCC(C)CC3)cc21)CC(C)C | -3% | -0.3% | x | -1%
CC(C)[C@H](NC(=O)N1CCn2c1nc1ccccc12)C(=O)N[C@@H](C(=O)O)c1ccccc1 | 25% | -1.4% | x | -5%
O=C(Cc1ccc(Cl)cc1)Nc1ccc(N2CCN(C(=O)c3ccco3)CC2)cc1 | -6% | 0.0% | 1 | 1%
Cc1cccc(NC(=O)CSc2nnc(CN3CCOCC3)n2C)c1C | -6% | -1.5% | 5 | -1%
Cc1ccc(C(=O)NCCCNC(=O)c2ccc(C)nc2)cc1 | 0% | 8.9% | x | -1%
C=CCN(c1ccccc1)S(=O)(=O)c1cccc(C(=O)NCC(c2ccc(OC)cc2)N2CCCCC2)c1 (stereo unspecified) | -3% | -1.2% | x | x
CC(=O)Nc1ccc(C(=O)Nc2nc(-c3ccccn3)cs2)cc1 | -11% | 0.0% | -1 | -5%
Cc1ccc(C2(C)NC(=O)N(CC(=O)N3c4ccccc4NC(=O)CC3C)C2=O)cc1 (stereo unspecified) | -7% | -0.2% | x | x
CCN(CC)CCCn1c2c(c(SCC(=O)Nc3nc4ccccc4s3)nc1=O)CCC2 | 14% | 2.2% | x | x
Cc1ccc(C(=O)CSc2ccccn2)cc1 | -8% | -5.5% | -1 | -45%
CC1(C)C2CCC1(CS(=O)(=O)NC1CCCC1)C(=O)C2 (stereo unspecified) | 23% | 4.1% | 1 | -1%
COc1ccc(Nc2c(-c3ccco3)nc3cccc(C)n23)cc1 | -1% | 4.3% | 0 | 12%&6%
O=C1c2cccc(OCC(=O)N3CCCc4ccccc43)c2CCN1Cc1cccnc1 | -27% | 0.4% | 4 | u
O=C(NCC1OCCCN1S(=O)(=O)c1cc(F)ccc1F)C(=O)NC1CCCC1 (stereo unspecified) | -8% | 3.1% | x | -1%
CC(=O)c1cccc(OCc2cc(C(=O)N(C)CCc3ccccn3)no2)c1 | 2% | -3.8% | x | -8%
C/C(=N\NC(=O)c1nc2ccccn2c1C)c1cccc([N+](=O)[O-])c1 | -4% | -2.0% | -12 | -4%
CCC(=O)N1CC2(c3ccccc3)CN(C(=O)CC)CC(c3ccccc3)(C1)C2=O | -1% | 0.7% | -1 | 3%
CC(C)(C)OC(=O)C[C@H]1C/C=C\C[C@H](CC(=O)NCCO)C(=O)N[C@@H](c2ccccc2)COC1=O | 1% | -5.2% | x | x
COc1ccc(-c2cn3c(C)c(C(=O)N4CCCc5ccccc54)sc3n2)cc1 | 2% | 0.5% | x | x
CCNC(=S)N1CCCCC1CO (stereo unspecified) | 10% | 2.6% | -1 | 0%
O=C(/C=C/c1ccc([N+](=O)[O-])cc1)Nc1ncc([N+](=O)[O-])s1 | 4% | 4.2% | -3 | -26%
CN(c1ccc(OCC(=O)N2CCCC2)cc1)S(=O)(=O)c1ccc(Cl)cc1 | -5% | 3.4% | x | x
CCCCn1c(-c2ccc(OC)cc2)nc2c(=O)n(C)c(=O)[nH]c21 | 0% | -1.0% | x | 1%
COc1cccc(NC(=O)N2CCN(c3nc(-c4cccc(OC)c4)cs3)CC2)c1 | -3% | 3.1% | 2 | 29%
CCN(CC(=O)Nc1ccc(OC)cc1)C(=O)Cc1coc2cc(C)c(C)cc12 | 4% | -0.5% | x | x
CCN1C(=O)C(CC(=O)Nc2ccc(Cl)cc2)N(NC(=O)c2ccncc2)C1=S (stereo unspecified) | 1% | -0.5% | -16 | -9%
O=C(N/N=C/c1cccc(Cl)c1Cl)Nc1ccccc1 | 2% | -2.1% | x | -31%
Cc1ccc2cc3c(N)[nH]nc3nc2c1 | -11% | -0.7% | 7 | -33%
O=C(Nc1nnc(-c2ccco2)o1)C1CCCCC1 | -24% | 3.4% | -2 | -17%
Cc1ccc(S(=O)(=O)N2CCCCC2)cc1NC(=O)CN1C(=O)CN(C)C1=O | 14% | 3.6% | 4 | 0%
CCOC(=O)C1(CC2CC2)CCN(Cc2cnc(-c3ccccc3C)nc2)CC1 | -13% | -2.2% | -18 | 4%
Cc1ccc(CNC(=O)C2CCN(S(=O)(=O)c3cnc[nH]3)CC2)cc1 | 9% | 3.3% | 4 | -3%
Cc1ccc2[nH]c(=O)c(CN(Cc3cccs3)Cc3nnnn3Cc3ccccc3)cc2c1 | 0% | 1.3% | -9 | -6%
CCc1ccc(NC(=O)CN(c2ccccc2)S(=O)(=O)N(C)C)cc1 | 8% | 2.1% | 0 | 3%
Cc1ccc(S(=O)(=O)NCC(=O)Nc2cccnc2)cc1C | 1% | -4.7% | x | x
COc1cc(OC)cc(-c2cc3nc(C)c(CCC(=O)NC(C)CCc4ccco4)c(C)n3n2)c1 (stereo unspecified) | 0% | -0.4% | -10 | 18%
CC(C)/C=C/CN1CCN(CCCc2ccccc2)C(CCO)C1 (stereo unspecified) | 11% | 0.3% | x | 1%
Cc1sc(NC(=O)CS(=O)(=O)c2ccccc2)c(C#N)c1C | -2% | 3.7% | x | x
CCCOc1ccc(/C=N/NC(=O)CN2CCCCC2)cc1 | -12% | -1.4% | x | 5%
COc1ccc(N(C(=O)COc2ccc(F)cc2)S(=O)(=O)c2ccc(C)cc2)cc1 | -15% | -3.6% | 1 | -9%
CCOc1ccc(-c2cc(C(=O)N3CCC(C)CC3)c3ccccc3n2)cc1 | -4% | -0.8% | x | x
O=C(CCc1nc(-c2ccccc2)no1)NCc1ccco1 | -15% | 2.0% | -4 | -14%
Cc1oc2c(C)c3oc(=O)c(CCC(=O)N4C[C@H]5C[C@@H](C4)c4cccc(=O)n4C5)c(C)c3cc2c1C | 6% | -3.4% | x | -6%
Cc1cccc(CNC(=O)Cn2ccc3cc(S(=O)(=O)N4CCCCCC4)ccc32)c1 | 23% | 0.2% | x | -5%&-1%

Source: PubChem BioAssay
